Cruzain inh noDet: qHTS Assay for Promiscuous and Specific Inhibitors of Cruzain (without detergent). Potency, µM, inactives show max response, negative = inhibition, hits mostly inhibitors. AID 1476, 2009. Cruzipain (Trypanosoma cruzi), P25779. 2.3% of 200,000 active. purified cruzain, Z-FR-AMC fluorescence, no detergent;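 further: plate controls were enzyme without inhibitor for no effect and buffer without enzyme for full effect; nearly all actives have a fitted effect of over 40% in size; top concentration of the series not given in the record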
Target sequence (P25779 123-467 limits assumed): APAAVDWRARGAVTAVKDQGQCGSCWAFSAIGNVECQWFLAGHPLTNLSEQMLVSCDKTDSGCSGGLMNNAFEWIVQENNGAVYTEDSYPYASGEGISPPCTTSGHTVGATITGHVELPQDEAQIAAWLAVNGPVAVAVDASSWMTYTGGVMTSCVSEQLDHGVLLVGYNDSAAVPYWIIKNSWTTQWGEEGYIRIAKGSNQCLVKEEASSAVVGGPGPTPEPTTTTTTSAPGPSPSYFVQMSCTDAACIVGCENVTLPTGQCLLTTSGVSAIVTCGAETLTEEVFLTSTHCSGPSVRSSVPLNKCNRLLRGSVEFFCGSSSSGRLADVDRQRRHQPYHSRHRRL
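Purified cruzain at 1.5 nM, pre-incubated 15 min with compound at room temperature in 100 mM sodium acetate pH 5.5, 5 mM DTT, 0.00005% Triton X-100. Reaction started with 2 uM Z-FR-AMC; AMC fluorescence increase over 60 s gives rate.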
StopGo reporter: High Throughput Screening for Foot and Mouth Disease Virus Antivirals; human cells with a luciferase reporter of 2A StopGo recoding; control for the full effect not named in the record; Potency, µM (doses to about 57.9 µM), for the others: at the highest dose signal change, negative = less light; 1.2% of 410,000 active; AID 1159524, 2015; active = well fitted falling curve with a large enough effect; inconclusive = small, poorly fitted or top-dose-only effect; inactive = no such curve, though single readings can be large or run the other way; tested in HEK293T cells; further: on the % scale 0 is the no-effect control and ±100 the full control effect; nearly all actives have a fitted effect of over 45% in size; luciferase light after 4 h
MARV entry inh: qHTS for inhibitors of binding or entry into cells for Marburg Virus; Marburg virus pseudotyped entry inhibition, cell reporter; control for the full effect not named in the record; about a third of the inactives were read at about 46 µM; 1.8% of 300,000 active; Potency, µM (series often up to 37.8 µM), for inactives: at the highest dose activity change, negative = inhibition, usual class: inhibitors; AID 540276, 2011; active = well fitted inhibition curve with a large enough effect; inconclusive = small, poorly fitted or top-dose-only effect, or effect the other way; inactive = flat fitted curve, though single readings scatter; tested in HEK293 cells; about a fifth of its hits are not listed in these tables; further: on the % scale 0 is the no-effect control and ±100 the full control effect; luciferase read-out
SARS PLP yeast: qHTS of Yeast-based Assay for SARS-CoV PLP. S. cerevisiae expressing SARS-CoV PLpro, growth rescue; control for the full effect not named in the record. Potency, µM (doses to about 32.9 µM), for inactives: at the top dose activity, positive = growth rescue. 0.19% of 330,000 active; active means well fitted rising curve with a large enough effect; inconclusive means small, poorly fitted or top-dose-only effect; inactive means no such curve, though single readings can be large or run the other way; further: 0% is about no effect; nearly all actives have a fitted effect of over 55% in size; growth read by luminescence after 48 h
LASV entry inh: qHTS for Inhibitors of binding or entry into cells for Lassa Virus; Lassa virus pseudotype entry inhibition, cell reporter; control for the full effect not named in the record; Potency, µM (series often up to 37.9 µM), inactives show top-dose activity change, negative = inhibition, usual class: inhibitors; 1.2% of 300,000 active; AID 540256, 2011; active means well fitted inhibition curve with a large enough effect; inconclusive means small, poorly fitted or top-dose-only effect, or effect the other way; inactive means flat fitted curve, though single readings scatter; tested in HEK293 cells; further: on the % scale 0 is the no-effect control and ±100 the full control effect; nearly all actives have a fitted effect of over 50% in size; luciferase read-out
Cruzain inh Det: qHTS Assay for Promiscuous and Specific Inhibitors of Cruzain (with detergent); Cruzipain (Trypanosoma cruzi), P25779; AID 1478, 2009; 0.43% of 200,000 active; Potency, µM, inactives show max response, negative = inhibition, usual class: inhibitors; purified cruzain, Z-FR-AMC fluorescence, 0.01% Triton;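 further: plate controls were neutral wells for no effect and buffer without enzyme for full effect; nearly all actives have a fitted effect of over 40% in size; top concentration of the series not given in the record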
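Cruzain (1.5 nM) preincubated 15 min at RT with compound in 100 mM sodium acetate pH 5.5, 5 mM DTT, 0.01% Triton X-100. Reaction started with 2 uM Z-FR-AMC; AMC fluorescence (ex 360/em 450 nm) change over 60 s gave rate.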
NS1 function inh: qHTS Assay for Inhibitors of Influenza NS1 Protein Function | S. cerevisiae slowed by influenza A NS1, growth recovery by OD600 | Potency, µM (titrated, usually from 46.1 µM), inactives show top-dose activity, positive = more growth | 0.4% of 270,000 active; active means well fitted rising curve with a large enough effect; inconclusive means small, poorly fitted or top-dose-only effect; inactive means no such curve, though single readings can be large or run the other way; further: nearly all actives have a fitted effect of over 50% in size
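A cell-based growth assay was used: compounds that relieve NS1-induced slow growth of budding yeast raise OD600. Assay medium was yeast nitrogen base with ammonium sulphate and -URA supplement, pH 6.0, with 2% galactose.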
RE007 growth inh: qHTS Assay for Inhibitors of the HIV-1 protein Vpr; S. pombe RE007 Vpr strain, BacTiter-Glo ATP luminescence, 24 h; control for the full effect not named in the record; Potency, µM (highest dose often 92.2 µM), inactives show at the highest dose activity change, negative = less growth; 0.21% of 360,000 active; AID 651644, 2012; active = well fitted falling curve with a large enough effect; inconclusive = small, poorly fitted or top-dose-only effect; inactive = no such curve, though single readings can be large or run the other way;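 further: on the % scale 0 is the no-effect control and ±100 the full control effect; nearly all actives have a fitted effect of over 50% in size; the assay follows cell death caused by Vpr and the record does not say whether a fall means rescue or toxicity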
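Fission yeast RE007 carrying one integrated HIV-1 vpr copy, seeded at OD 0.01 in PMG+AL medium with 23 nL pinned compound. Grown 24 h at 30 degrees; viability read by BacTiter-Glo luminescence after 5 min.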
* marks the source's active call; other numbers are inactive results; ? = inconclusive; nt = not tested or not shown; & = joins results of further samples; [ ] = remark or other dose. Unless noted, the call rests on the fitted dose curve; in most records, active means well fitted curve in the direction sought with a large enough effect; inconclusive means small, poorly fitted or top-dose-only effect, or another doubt; inactive means no such curve, though single readings can be large; an effect the other way counts as inactive or inconclusive. Potency means the concentration at half of the fitted maximal effect.

SMILES	Cruzain inh noDet	StopGo reporter	MARV entry inh	SARS PLP yeast	LASV entry inh	Cruzain inh Det	NS1 function inh	RE007 growth inh
CCOc1cccc(OCCCCN2CCCCC2)c1	-8%	-1%	-28%	1%	-1%	5.7%	-15%	-12%
Cc1nn2c(COc3ccc(NC(=O)C(C)C)cc3)nnc2c2ccccc12	nt	2%	-1%	-4%	?	nt	nt	-8%
O=c1c2nnn(Cc3ccccc3)c2ncn1-c1ccccc1	4%	18%	-17%[46.1 µM]	1%	7%	4.0%	-8%	19%
O=C(OCC(=O)N1CCCC1=O)c1cc(S(=O)(=O)N2CCOCC2)ccc1Cl	nt	-14%	14%	-1%	6%[46.1 µM]	nt	nt	1%
COC(=O)CN(c1ccccc1)S(=O)(=O)c1ccc(F)cc1	6%	-13%	-1%	-2%	16%	0.8%	2%	0%
CCOCCC(=O)Nc1nnc(CCc2ccccc2)s1	nt	3%	nt	1%	nt	nt	-11%	7%
Cc1ccc(C)c(N(C(=O)c2nsc(Cl)c2Cl)C(C(=O)NC2CCCC2)c2ccc(O)cc2)c1 (centres undefined)	10%	-7%	?	0%	?	-3.1%	11%	-1%
C(=C\c1cccc2ccccc12)/c1nnc(-c2cccs2)o1	8%	nt	-5%	-3%	4%	-14%	-4%	14%
COc1ccc2c(c1)c(=O)c(S(=O)(=O)c1ccc(Cl)cc1)cn2Cc1cc(C)ccc1C	10µM*	?	12%[46.1 µM]	nt	8%[46.1 µM]	-3.7%	nt	nt
O=c1c2ccccc2n(Cc2c(F)cccc2Cl)c(=O)n1Cc1ccccc1	-2%	-17%	10%[46.1 µM]	nt	-5%[46.1 µM]	-1.1%	nt	nt
O=C(O)c1ccc(NCc2cccs2)cc1	nt	17%	-17%	-2%	-9%	nt	-56%	2%
O=C1CCSc2ccc(S(=O)(=O)Nc3ccc(Cl)c(C(F)(F)F)c3)cc2N1	-4%	25%	nt	nt	3%[46.1 µM]	-22%	nt	nt
CCOC(=O)Cc1cnc(NC(=O)CSc2nc(N)cc(N)n2)s1	nt	?	0%[46.1 µM]	2%	14%	nt	nt	-3%
COc1cc(C(=O)Nc2ccc3oc(-c4ccccc4)nc3c2)cc(OC)c1OC	?	?	nt	nt	?	-10%	nt	nt
COc1ccccc1/C=C/c1ccc2cccc(O)c2n1	nt	-25%	?	-1%	-26%[46.1 µM]	nt	-64%	-3%
O=C(O)c1cc(S(=O)(=O)N2CCN(C(c3ccccc3)c3ccccc3)CC2)ccc1Cl	nt	-12%	0%[46.1 µM]	-1%	9%[46.1 µM]	nt	7%	-17%
Cc1cccc(OCC(=O)Nc2cccc(C(=O)OCc3cc(=O)n4nc(C(C)C)sc4n3)c2)c1	5%	0%	nt	nt	?	-2.0%	nt	nt
CCc1ccccc1NC(=O)Nc1cc(C(=O)NCc2ccc(OC)cc2)ccc1N1CCCC1	13%	8%	nt	nt	-6%[46.1 µM]	3.6%	nt	nt
O=C(Cn1c(-c2cncs2)nc2ccccc21)NCCc1ccccc1	-7%	-6%	nt	?	nt	1.0%	-62%	-8%
S=C(NCCc1ccccc1)N/N=C/c1ccc(Cl)cc1	nt	2%	2%[46.1 µM]	21%	-17%	nt	2%	?
OC1CCN(c2ncnc3nc[nH]c23)CC1	8%	24%	-7%	13%	3%	0.0%	-11%	-4%
CCc1ncc(C(O)c2cccc3ccccc23)n1C (centres undefined)	-3%	-3%	-16%	2%	-4%	-2.0%	3%	-7%
CC(C)(C)c1cc(CN2CCC(O)CC2)cc(C(C)(C)C)c1O	-1%	-10%	?	-7%	-25%	-0.1%	-2%	-2%
COc1cc(NC(=O)CSc2nc3nc(C)c(Cc4ccccc4)c(C)n3n2)cc(OC)c1	?	-10%	nt	nt	10%[46.1 µM]	-0.8%	nt	nt
COc1ccc(OCC(=O)NCCNC(=O)c2ccncc2)cc1	nt	-5%	23%[46.1 µM]	0%	2%[46.1 µM]	nt	4%	-10%
O=C(c1ccc(N2CN(C(=O)c3ccco3)c3nc4ccccc4nc32)cc1)N1CCOCC1	?	nt	?	1%	-30%	-2.8%	-19%	-9%
COC(=O)c1cccc(NC(=S)Nc2cccc(Cl)c2Cl)c1	-3%	31%[activator]	6%	1%	-1%	-5.8%	1%	-4%
C/C(=N\n1c(C)nc2ccccc2c1=O)c1ccc(C)o1	nt	-7%	-11%	-1%	-2%	nt	-1%	28%
CCN(CC(=O)NC1CCS(=O)(=O)C1)c1nc(-c2ccccc2)nc2ccccc12 (centres undefined)	1%	2%	10%	15%	-26%	1.1%	-7%	-1%
CCCC12CN3CCN(CC(C3)/C1=N\NC(=O)c1ccc(F)cc1)C2	nt	-1%	?	-1%	6%	nt	nt	4%
O=C(Nc1nc(-c2ccccc2)c(-c2ccccc2)s1)c1ccc(S(=O)(=O)N(CCCl)CCCl)cc1	4µM*	-9%	?	4%	5µM*	-2.4%	-2%	2%
COc1ccc2cc(C3(C)NC(=O)N(CC(=O)NCc4ccco4)C3=O)ccc2c1 (centres undefined)	4%	8%	5%	1%	10%	-2.3%	0%	5%
O=C(NC12CC3CC(CC(C3)C1)C2)c1ccc(-c2cccc(Cl)c2)o1	?	29%	-25%	-53%	-21%	-6.7%	-4%	0%
COCCNC(=O)c1c(CSc2ccccc2)noc1C(=O)NCc1ccccc1	nt	13%	nt	0%	nt	nt	-8%	3%
CC(SCc1ccccc1)C(=O)NN=C1CCN(C)CC1 (centres undefined)	6%	nt	?	-1%	1%	0.9%	?	3%
Cc1ccc(Sc2c(C)nn(C(=O)c3ccc(Cl)cc3)c2C)cc1	8%	-1%	6%[46.1 µM]	nt	-10%[46.1 µM]	-6.2%	nt	nt
CCOC(=O)C1(CCOc2ccccc2)CCN(C(=O)CCSC)CC1	nt	-8%	4%[46.1 µM]	nt	-19%[46.1 µM]	nt	nt	7%
CCOC(=O)NC(Nc1ncccn1)(C(F)(F)F)C(F)(F)F	0%	-14%	6%[46.1 µM]	-4%	-6%	0.7%	?	3%
COC(=O)c1ccccc1NC(=O)COC(=O)c1ccccc1N=Nc1ccc(N(C)C)cc1	-15%	3%	-34%	-1%	3%	-3.8%	4%	0%
CCOC(=O)N1CCN(S(=O)(=O)c2ccc(C)cc2)C1c1ccccc1 (centres undefined)	1%	?	-17%[46.1 µM]	-3%	-9%	-4.4%	-2%	14%
Cc1cccc(NC(=O)C2CCCN(S(=O)(=O)c3ccc4[nH]c(=O)ccc4c3)C2)n1 (centres undefined)	nt	-25%	-1%[46.1 µM]	0%	?	nt	-15%	2%
CS(=O)(=O)NNC(=O)Cn1nnc(-c2cc(C(F)(F)F)cc(C(F)(F)F)c2)n1	nt	-8%	-17%[46.1 µM]	-3%	-16%[46.1 µM]	nt	0%	8%
CCC(C)[C@@H](C(=O)N1CCNCC1)n1cc(CCCCN)nn1 (some centres undefined)	nt	-12%	nt	-1%	nt	nt	-1%	-8%
Cn1c(SCc2cccnc2)nc2cccnc21	-2%	20%	0%[46.1 µM]	1%	4%	0.0%	-5%	-12%
CCNc1nnc(-c2ccc(C)cc2)o1	8%	47%[activator]	16%	-2%	20%	4.7%	-6%	9%
CC1CCC2(CC1)NC(=O)N(CC(=O)Nc1cc(S(=O)(=O)N3CCCC3)ccc1Cl)C2=O (centres undefined)	nt	-26%	-7%[46.1 µM]	-4%	-12%[46.1 µM]	nt	nt	24%
Clc1ccc(-c2nnc3sc(-c4ccc(Br)o4)nn23)cc1	?	12%	-12%	-2%	-16%	1.7%	11%	2%
CCN(CC)c1ccc(NC(=O)c2c(C)nn(-c3ccc(F)cc3)c2-n2cccc2)c(C)c1	-12%	?	nt	nt	-10%[46.1 µM]	-5.8%	nt	nt
COc1cccc(/C=C/C(=O)OCC(=O)Nc2ccc(N3CCOCC3)cc2)c1OC	nt	-1%	4%[46.1 µM]	-1%	23%	nt	nt	-13%
Nc1nc(NCc2ccco2)nc(NCCO)c1[N+](=O)[O-]	nt	-2%	nt	0%	nt	nt	-2%	19%
Cc1cc(C)n(CC(=O)NCCC2=CCCCC2)n1	nt	52%[activator]	10%[46.1 µM]	0%	6%[46.1 µM]	nt	3%	9%
CCc1cccc(CC)c1NC(=O)CSc1nnc(C(C)C)n1CC	0%	2%	0%[46.1 µM]	2%	?	0.7%	-1%	-4%
CCCS(=O)(=O)N1CCCC(C(=O)N2CCCCC2)C1 (centres undefined)	nt	4%	-8%[46.1 µM]	-1%	?	nt	2%	14%
Cc1cccc([C@@H]2[C@@H]3C(=O)N(Cc4ccccc4)C(=O)[C@@H]3[C@]3(C)C(=O)N(c4cccc(Cl)c4)C(=O)N23)c1	nt	-18%	nt	-1%	nt	nt	?	9%
COCCCN(C(C)=O)c1nc(-c2ccc(OC)cc2)cs1	?	-8%	?	-8%	10µM*	-4.7%	-4%	-15%
Cc1cccc(C(=O)OCC(=O)N2CCCCCC2)c1	nt	28%	0%	-11%	?	nt	nt	1%
Cc1c(NC(=O)C2CCCN(S(=O)(=O)c3cnc[nH]3)C2)c(=O)n(-c2ccccc2)n1C (centres undefined)	-10%	-19%	-2%	0%	nt	0.0%	12%	3%
CCOc1ccc(NC(=O)c2ccccc2SC)cc1	nt	22%	nt	-3%	nt	nt	-1%	-4%
Nc1nc(SCc2ccccn2)c2ncn(C3OC(CO)C(O)C3O)c2n1 (centres undefined)	nt	11%	6%[46.1 µM]	nt	-5%[46.1 µM]	nt	nt	-14%
COc1ccc(C(CNC(=O)COc2ccc(F)cc2Br)N2CCCC2)cc1 (centres undefined)	nt	-24%	4.5µM*	2%	nt	nt	15%	-1%

Remaining list, next part
SMILES	Cruzain inh noDet	StopGo reporter	MARV entry inh	SARS PLP yeast	LASV entry inh	Cruzain inh Det	NS1 function inh	RE007 growth inh
COc1ccc2cc3cc(C(=O)NCCN4CCN(Cc5ccccc5)CC4)oc3nc2c1	-30%	-18%	9%&2%	-1%	?	?	-14%	6%
Fc1ccc(COc2ccccc2CNc2nn[nH]n2)cc1	nt	-6%	-17%[46.1 µM]	0%	19%[46.1 µM]	nt	4%	-8%
Cc1cc(C(=O)NNC(=O)Cc2ccc(Cl)cc2)c(C)o1	nt	-16%	-23%[46.1 µM]	5%	-4%	nt	nt	-10%
CC1CCCN(C(=O)C2CCN(CCCc3ccccc3)CC2)C1 (centres undefined)	-2%	-13%	-17%	4%	0%	2.1%	2%	12%
